YB-1 expression: YB-1 expression inhibition | U2OS, qRT-PCR YB-1 vs CDIP delta delta Cp, 16 h; active compounds read high; zero = DMSO, each unit about twofold | delta delta Cp (YB-1 minus CDIP) (test concentration not listed) | 30,000 compounds, 0.37% hits | AID 434959;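 active = delta delta Cp rounded down to an integer at or above 3, about 3 SD of DMSO wells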;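 also: higher means less YB-1 transcript or more CDIP transcript relative to DMSO; stock transfer was 100 nL into about 100 µL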
Hedgehog inh: Sonic Hedgehog pathway inhibition | AID 2313 | inhibition, % (test concentration not listed) | Shh-LIGHT2 Gli-luciferase reporter, 30 h | 22,000 compounds, 2.1% hits;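 active = replicate mean of 65% or more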;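 also: pathway switched on by Shh-conditioned medium diluted 1 in 25 in low serum; 100 nL library stock added to about 40 µL; 0% = median of neutral wells and 100% = positive control level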
PD-1 reversal: activators reversing PD-1 mediated T-cell inhibition | primary human CD4 T cells, PD-L1 beads, CellTiter-Glo 96 h | activation, % (test concentration not listed) | 29,000 tested, under 10 active;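 active = replicate mean of 50% or more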;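 also: 0% = median vehicle wells and 100% = positive control; 100 nL library stock added to about 50 µL; numbers are from one replicate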
MITF inhib: inhibitors of MITF; TRPM1 promoter luciferase, luminescence, 24 h; inhibition, % (test concentration not listed); 37,000 compounds, 0.28% hits;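 active = most replicates at 85% or more, or half of them and the mean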;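 also: human melanocyte line stably carrying TRPM1 promoter luciferase reporter; 0% = vehicle wells and 100% = a positive control; the first replicate is given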
* = called active by the depositor; / = not tested or not shown.

SMILES | YB-1 expression | MITF inhib | Hedgehog inh | PD-1 reversal
C[C@H](CO)N1C[C@H](C)[C@H](CN(C)Cc2ccc(C(=O)O)cc2)Oc2c(NS(=O)(=O)c3ccc(F)cc3)cccc2C1=O | -0.17 | -1 | -7 | 1.4
C[C@@H]1CN([C@@H](C)CO)C(=O)c2cccc(NC(=O)C3CCOCC3)c2O[C@H]1CN(C)Cc1ccc(C(F)(F)F)cc1 | -0.11 | -2 | 56 | /
C[C@@H]1CCCCO[C@@H](CN(C)C(=O)Nc2ccc(C(F)(F)F)cc2)[C@@H](C)CN([C@H](C)CO)C(=O)c2cc(NC(=O)Cc3ccccc3)ccc2O1 | -0.1 | -11 | -10 | /
COc1ccc(S(=O)(=O)N(C)C[C@H]2Oc3ccc(NS(C)(=O)=O)cc3CC(=O)N([C@@H](C)CO)C[C@H]2C)cc1 | -0.17 | -7 | / | -0.1
COc1ccc(NC(=O)Nc2ccc3c(c2)C(=O)N([C@@H](C)CO)C[C@@H](C)[C@@H](CN(C)Cc2ccc(C(=O)Nc4ccccc4N)cc2)O3)cc1 | 0.074 | 2 | / | -1.6
C[C@@H]1CN([C@@H](C)CO)C(=O)c2cccc(NC(=O)CCCCCC(=O)Nc3ccccc3N)c2O[C@@H]1CN(C)S(=O)(=O)c1ccc(F)cc1 | 0.21 | -1 | / | 0.6
C[C@H](CO)N1C[C@H](C)[C@H](CN(C)S(=O)(=O)c2cccs2)Oc2ccc(NS(=O)(=O)c3ccc(F)cc3)cc2CC1=O | 0.24 | -8 | -5 | -0.8
COc1cccc(C2CC(C(F)(F)F)n3ncc(C(=O)NCc4ccco4)c3N2)c1 (configuration not stated) | / | 3 | / | -0.9
C[C@H](CO)N1C[C@H](C)[C@H](CN(C)Cc2ccc(C(F)(F)F)cc2)Oc2ccc(NC(=O)Nc3cccc4ccccc34)cc2C1=O | -0.81 | 44 | / | -0.5
Cn1c(=O)[nH]c2ncn(C)c2c1=O | 0.13 | -4 | 46 | /
COc1ccccc1NC(=O)CSc1n[nH]c(C)n1 | / | 3 | / | 2.3
CNC[C@H]1Oc2ccc(NS(=O)(=O)c3ccccc3)cc2CC(=O)N([C@@H](C)CO)C[C@@H]1C | 0.026 | -3 | -32 | /
C[C@H]1CN([C@@H](C)CO)C(=O)Cc2cc(N(C)C)ccc2O[C@@H]1CN(C)C | -0.17 | -1 | -10 | /
C[C@@H]1CN([C@H](C)CO)C(=O)c2cccc(NC(=O)C3CCOCC3)c2O[C@@H]1CN(C)C | 1.7 | -12 | 2 | 3.4
C[C@@H]1CCCCO[C@@H](CN(C)C(=O)Nc2ccccc2)[C@@H](C)CN([C@H](C)CO)C(=O)c2cc(NS(=O)(=O)c3cn(C)cn3)ccc2O1 | 0.28 | -5 | -12 | 4.2

Part of the list above with just YB-1 expression, MITF inhib and PD-1 reversal:
SMILES	YB-1 expression	MITF inhib	PD-1 reversal
C[C@H](CO)N1C[C@H](C)[C@H](CN(C)S(=O)(=O)c2cccs2)Oc2ccc(NS(=O)(=O)c3ccc(F)cc3)cc2CC1=O	0.24	-8	-0.8
COc1cccc(C2CC(C(F)(F)F)n3ncc(C(=O)NCc4ccco4)c3N2)c1 (configuration not stated)	/	3	-0.9

(cont.)
SMILES | YB-1 expression | MITF inhib | Hedgehog inh | PD-1 reversal
C[C@@H]1CN([C@H](C)CO)C(=O)c2cccc(NC(=O)C3CCCCC3)c2O[C@H]1CN(C)Cc1ccccc1 | -0.43 | 38 | -5 | -6.3
CC(=O)Oc1ccc2c(=O)c(Oc3ccc(Cl)cc3)c(C)oc2c1 | -0.031 | 35 | 4 | -2.6
C[C@@H]1CN([C@@H](C)CO)C(=O)c2cccc(NS(=O)(=O)c3ccccc3)c2O[C@H]1CN(C)C(=O)Nc1ccc(C(F)(F)F)cc1 | -0.46 | -5 | 15 | 0.1
COc1ccc(NC(=O)N(C)C[C@H]2Oc3ccc(NC(=O)NC4CCCCC4)cc3CC(=O)N([C@H](C)CO)C[C@H]2C)cc1 | 0.012 | -3 | -18 | -0.6
CCc1c(C)sc(NC(=S)NCc2cc(C)n(C)n2)c1C(=O)OC | / | 12 | / | -0.2
Cc1cc(C(=O)Nc2cccc3c2O[C@H](CN(C)S(=O)(=O)c2ccc(F)cc2)[C@H](C)CN([C@@H](C)CO)C3=O)n(C)n1 | -0.34 | 6 | -26 | 1.2
CC1=C(C(=O)OCc2ccccc2)OC(N)=C(C#N)C1c1ccc(F)cc1 (configuration not stated) | -0.73 | -8 | 5 | -0.7
C[C@H]1CN([C@@H](C)CO)C(=O)c2cc(N(C)C)ccc2O[C@H]1CN(C)C(=O)Nc1ccccc1 | -0.25 | -4 | / | 4.8
C[C@@H]1CN([C@@H](C)CO)C(=O)Cc2cc(N(C)C)ccc2O[C@@H]1CN(C)C(=O)Nc1ccc(C(F)(F)F)cc1 | 0.09 | 7 | 1 | 0.2
O=C(CSc1n[nH]c(-c2ccc(Cl)cc2Cl)n1)N1CCc2ccccc21 | / | -10 | / | 1.8
Cc1noc(C)c1NC(=O)N(C)C[C@H]1Oc2ccc(NC(=O)NC(C)C)cc2CC(=O)N([C@@H](C)CO)C[C@H]1C | 0.1 | -3 | -9 | /
C[C@H](CO)N1C[C@H](C)[C@@H](CN(C)Cc2ccncc2)Oc2ccc(N(C)C)cc2C1=O | -0.33 | -4 | -21 | 0.5
COC(=O)C1=C(C)Nc2ncnn2C1c1ccc(OCC(=O)N2CCOCC2)c(OC)c1 (configuration not stated) | / | 3 | / | 1.3
COc1ccc(CN(C)C[C@H]2Oc3ccc(NS(=O)(=O)c4ccc(F)cc4)cc3CC(=O)N([C@H](C)CO)C[C@H]2C)cc1 | -0.0022 | -14 | / | 0.8
COc1cc2c(c(OC)c1OC)CCc1cc(O)c(O)cc1-2 | -0.022 | -2 | -12 | 2.3
C[C@@H]1CN([C@H](C)CO)C(=O)c2cccc(NS(=O)(=O)c3cn(C)cn3)c2O[C@H]1CN(C)S(=O)(=O)c1ccc(Cl)cc1 | 0.32 | -2 | 13 | 0.5
C[C@@H]1CN([C@H](C)CO)C(=O)Cc2cc(NC(=O)Nc3ccc4c(c3)OCO4)ccc2O[C@@H]1CN(C)S(=O)(=O)c1ccc(F)cc1 | -0.0046 | 3 | 4 | -3.4
C[C@@H]1CCCCO[C@H](CN(C)S(C)(=O)=O)[C@@H](C)CN([C@H](C)CO)C(=O)c2cc(NS(=O)(=O)c3ccccc3)ccc2O1 | -0.53 | -3 | -33 | -0.3
C[C@@H]1CN([C@H](C)CO)C(=O)c2cccc(NS(C)(=O)=O)c2O[C@@H]1CN(C)C(=O)Nc1ccc(F)cc1 | 0.35 | -4 | -11 | 2.2
CC(C)NC(=O)Nc1ccc2c(c1)CC(=O)N([C@H](C)CO)C[C@@H](C)[C@H](CN(C)C(=O)Nc1ccc(F)cc1)O2 | -0.15 | -8 | -8 | /
C[C@@H]1CCCCO[C@H](CN(C)C(=O)NC2CCCCC2)[C@@H](C)CN([C@H](C)CO)C(=O)c2cc(NC(=O)c3ccncc3)ccc2O1 | -0.1 | -4 | 33 | /
C[C@H]1CN([C@@H](C)CO)C(=O)c2cc(NC(=O)C3CCCCC3)ccc2O[C@H]1CN(C)C(=O)NC1CCCCC1 | 0.073 | -4 | / | -1.9
C[C@H]1CN([C@@H](C)CO)C(=O)Cc2cc(NC(=O)C3CC3)ccc2O[C@H]1CN(C)C(=O)Nc1ccc(F)cc1 | 0.51 | -11 | 21 | -0.6
CC(C)NC(=O)N(C)C[C@@H]1Oc2ccc(NS(=O)(=O)c3cccs3)cc2CC(=O)N([C@H](C)CO)C[C@@H]1C | -0.21 | 3 | 3 | 0.3
COc1ccc(S(=O)(=O)Nc2ccc3c(c2)CC(=O)N([C@@H](C)CO)C[C@@H](C)[C@@H](CN(C)Cc2ccc(C(=O)Nc4ccccc4N)cc2)O3)cc1 | 0.25 | 33 | / | 3.0
Cc1ccc(OCC(=O)Nc2cccc(C(=O)O)c2C)cc1 | / | -74 | / | 4.1
CCCCn1c(SCC(=O)O)nc2ccccc21 | / | -2 | / | 0.3
COc1ccc(NC(=O)Nc2cccc3c2O[C@@H](CN(C)Cc2ccc(C(F)(F)F)cc2)[C@@H](C)CN([C@@H](C)CO)C3=O)cc1 | 0.18 | 5 | -42 | -1.6
CC(C)NC(=O)N(C)C[C@H]1Oc2ccc(NC(=O)Nc3ccccc3)cc2C(=O)N([C@@H](C)CO)C[C@H]1C | 0.13 | 2 | -9 | -1.4
C[C@@H]1CN([C@@H](C)CO)C(=O)c2cc(NC(=O)C3CCCCC3)ccc2O[C@@H]1CN(C)CC1CCCCC1 | 0.2 | -13 | 19 | 0.2
C[C@@H]1CN([C@@H](C)CO)C(=O)Cc2cc(NC(=O)C3CCCCC3)ccc2O[C@@H]1CN(C)C(=O)Nc1ccccc1 | -17 | 1 | 47 | 1.8
C[C@@H]1CCCCO[C@H](CN(C)Cc2ccc(C(F)(F)F)cc2)[C@@H](C)CN([C@H](C)CO)C(=O)c2cc(NC(=O)Nc3ccc(F)cc3)ccc2O1 | -0.0064 | 21 | / | 0.1
Cc1cccc(OCC(=O)Nc2ccc3c(c2)nc(CN2CCCCC2)n3C)c1 | / | -25 | / | 1.3
C[C@H](CO)N1C[C@H](C)[C@H](CN(C)C(=O)Nc2ccc(C(F)(F)F)cc2)Oc2ccc(NC(=O)Nc3ccc4c(c3)OCO4)cc2C1=O | 0.36 | 17 | 29 | -1.7
CNC[C@@H]1Oc2ccc(NS(=O)(=O)c3c(C)noc3C)cc2CC(=O)N([C@H](C)CO)C[C@@H]1C | -0.052 | -5 | -29 | 3.1
C[C@@H]1CN([C@H](C)CO)C(=O)c2cc(NC(=O)CCN3CCOCC3)ccc2O[C@H]1CN(C)Cc1ccc(C(=O)O)cc1 | -0.41 | 3 | -28 | -0.1
C[C@@H]1CN([C@H](C)CO)C(=O)c2cc(NC(=O)Nc3cccc4ccccc34)ccc2O[C@H]1CN(C)C(=O)Nc1ccc2c(c1)OCO2 | -0.19 | 4 | / | -0.7
COc1ccc(S(=O)(=O)Nc2cccc3c2O[C@@H](CN(C)C(=O)Nc2c(C)noc2C)[C@H](C)CN([C@H](C)CO)C3=O)cc1 | 0.56 | -9 | 8 | 2.0
Cc1noc(C)c1NC(=O)Nc1cccc2c1O[C@@H](CN(C)C(=O)NC(C)C)[C@H](C)CN([C@H](C)CO)C2=O | 0.17 | -2 | -22 | 2.7
Cc1noc(C)c1S(=O)(=O)Nc1ccc2c(c1)C(=O)N([C@H](C)CO)C[C@@H](C)[C@H](CN(C)CC1CCCCC1)O2 | -0.36 | -2 | / | 4.0
C[C@@H]1CN([C@@H](C)CO)C(=O)c2cccc(NS(C)(=O)=O)c2O[C@H]1CN(C)C(=O)Nc1ccc2c(c1)OCO2 | -0.16 | -12 | 0 | 1.5
COc1ccc(C(=O)C(C)Oc2cccc(NC(=O)c3ccccc3[N+](=O)[O-])c2)cc1 (configuration not stated) | / | -7 | / | 3.8
C[C@@H]1CN([C@H](C)CO)C(=O)Cc2cc(NS(=O)(=O)c3ccccc3)ccc2O[C@H]1CN(C)C | -0.22 | -15 | / | 0.3
C[C@@H]1CN([C@H](C)CO)C(=O)c2cc(NC(=O)Nc3ccc(C(F)(F)F)cc3)ccc2O[C@@H]1CN(C)C(=O)Nc1ccc2c(c1)OCO2 | -0.32 | 35 | 4 | -1.2
Cc1noc(C)c1NC(=O)Nc1cccc2c1O[C@H](CN(C)Cc1ccc(Oc3ccccc3)cc1)[C@@H](C)CN([C@@H](C)CO)C2=O | 0.19 | 45 | 43 | -5.1

The closing 2 compounds of the section above lead into the next:
SMILES | YB-1 expression | MITF inhib | Hedgehog inh | PD-1 reversal
C[C@@H]1CN([C@H](C)CO)C(=O)c2cc(NC(=O)Nc3ccc(C(F)(F)F)cc3)ccc2O[C@@H]1CN(C)C(=O)Nc1ccc2c(c1)OCO2 | -0.32 | 35 | 4 | -1.2
Cc1noc(C)c1NC(=O)Nc1cccc2c1O[C@H](CN(C)Cc1ccc(Oc3ccccc3)cc1)[C@@H](C)CN([C@@H](C)CO)C2=O | 0.19 | 45 | 43 | -5.1
COC(=O)c1cc(C(=O)NCc2ccccc2OC)cc([N+](=O)[O-])c1 | / | -3 | / | -1.7
Cc1cccc(NC(=O)CN(c2cc(Cl)c(Cl)cc2Cl)S(C)(=O)=O)c1 | / | 16 | / | -1.7
Cc1noc(C)c1NC(=O)N(C)C[C@H]1Oc2ccc(NC(=O)CCN3CCOCC3)cc2C(=O)N([C@@H](C)CO)C[C@@H]1C | -0.37 | -3 | -15 | 1.0
CNC[C@H]1Oc2ccc(NC(=O)CCN3CCOCC3)cc2C(=O)N([C@@H](C)CO)C[C@@H]1C | 0.18 | -6 | -54 | /
C[C@H](CO)N1C[C@H](C)[C@H](CN(C)Cc2ccc3c(c2)OCO3)Oc2c(NS(=O)(=O)c3cccs3)cccc2C1=O | -0.038 | -20 | -8 | 1.5
COc1ccccc1-c1nnc(SCC(=O)Nc2ccccc2)o1 | / | -52 | / | 2.7

Looked up by compound from above (two):
SMILES | YB-1 expression | MITF inhib | Hedgehog inh | PD-1 reversal
C[C@H](CO)N1C[C@H](C)[C@H](CN(C)Cc2ccc3c(c2)OCO3)Oc2c(NS(=O)(=O)c3cccs3)cccc2C1=O | -0.038 | -20 | -8 | 1.5
Cc1noc(C)c1NC(=O)N(C)C[C@H]1Oc2ccc(NC(=O)CCN3CCOCC3)cc2C(=O)N([C@@H](C)CO)C[C@@H]1C | -0.37 | -3 | -15 | 1.0

Screening data as filed in PubChem.

An excerpt, so the mix of outcomes need not match the whole.
